Source: PubChem BioAssay
Insulin prom inh = inhibitors of insulin promoter-driven GFP, primary screen, imaging, TRM-6 cells (human fetal islet line), eGFP reporter, cell count; reporter expression induced with tamoxifen; inhibition, % at 2 µM; actives 0.9% (n = 130,000);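 active = inhibition above the mean plus 3 SD, with well images judged a real hit on visual review, cut at about 60% in these data, passing the limit was not always enough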
PKD1 kinase inh = inhibitors of human PKD1 kinase, biochemical, fluorescence polarization. Serine/threonine-protein kinase D1 (Homo sapiens), Q15139. PKD1 kinase fluorescence polarization assay. inhibition, %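 (about 10 µM by stock and volumes)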. actives 0.056% (n = 200,000);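 active = inhibition of 50% or more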;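 note: controls were vehicle for no effect and a reference inhibitor for full effect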
Target sequence (Q15139 whole entry, looked up): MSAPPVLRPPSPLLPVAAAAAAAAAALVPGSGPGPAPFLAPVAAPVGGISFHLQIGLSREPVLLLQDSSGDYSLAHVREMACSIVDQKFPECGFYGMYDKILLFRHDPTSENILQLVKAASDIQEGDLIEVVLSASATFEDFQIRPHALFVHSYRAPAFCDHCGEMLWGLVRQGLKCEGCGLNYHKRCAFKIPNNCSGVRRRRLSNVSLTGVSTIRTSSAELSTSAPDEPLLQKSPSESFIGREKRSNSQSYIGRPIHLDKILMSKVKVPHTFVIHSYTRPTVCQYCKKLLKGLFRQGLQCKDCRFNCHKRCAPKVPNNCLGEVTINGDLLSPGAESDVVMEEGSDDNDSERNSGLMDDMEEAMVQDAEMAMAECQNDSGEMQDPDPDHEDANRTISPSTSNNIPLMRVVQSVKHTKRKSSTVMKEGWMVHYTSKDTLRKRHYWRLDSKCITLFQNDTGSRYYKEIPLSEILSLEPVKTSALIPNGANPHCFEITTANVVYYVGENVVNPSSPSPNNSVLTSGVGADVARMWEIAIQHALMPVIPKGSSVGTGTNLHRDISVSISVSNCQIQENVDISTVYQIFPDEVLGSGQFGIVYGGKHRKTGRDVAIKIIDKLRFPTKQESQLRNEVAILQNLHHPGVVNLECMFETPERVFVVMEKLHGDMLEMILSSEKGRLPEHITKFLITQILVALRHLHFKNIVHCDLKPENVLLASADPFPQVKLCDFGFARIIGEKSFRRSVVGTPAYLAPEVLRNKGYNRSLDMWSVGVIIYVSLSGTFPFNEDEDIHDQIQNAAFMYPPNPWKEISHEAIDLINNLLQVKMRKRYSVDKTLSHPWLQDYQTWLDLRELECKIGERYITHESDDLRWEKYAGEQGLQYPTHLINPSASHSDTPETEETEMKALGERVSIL
RGS16-Gao = modulators of RGS16 binding to Galphao, primary screen, biochemical, human proteins, multiplexed bead flow cytometry; actives 0.38% (n = 220,000); binding response (% of control), % at 10 µM; Regulator of G-protein signaling 16 (Homo sapiens) + Guanine nucleotide-binding protein …; bead-based flow cytometry RGS16-Galphao binding, fluorescence; actives lie on both sides;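 active = below 25% or above 175%, edge rows of some plates excepted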;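 note: Galphao activated by GDP with aluminum fluoride before binding; 100% = wells without compound and 0% = beads without RGS; some results beyond the cut were filed as inactive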
GALR2 agonist = GALR2 receptor agonists, primary screen, cell-based | GALR2-expressing cells, agonist activation read-out | Galanin receptor type 2 (Homo sapiens), O43603 | actives 0.48% (n = 140,000) | activation, %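 (tested at 5 µM)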;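 active = above mean plus 3 SD of all compounds, about 5% in these data, not always enough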;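 note: 0% = vehicle buffer wells and 100% = reference agonist at full effect; tested in CHO reporter cells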
HSV replic up = enhancers of HSV replication in host cells, fold increase, host cell viability | HSV replication augmentation in cells | maximum fold increase | actives 0.005% (n = 220,000);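 active = peak rise of 1.5-fold or more in the series; tested in PC3 cells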;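 note: first round at 10 µM; read as green reporter fluorescence; hits show the peak of a series up to 25 µM; 1 = signal of infected wells without compound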
Insulin prom inh cell count = further read-out of Insulin prom inh, marked with its call; normalized cell count, %; measured here: cell count, toxicity; reference of the scale not given here;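 cells exposed to compound for 48 h; stained nuclei by imaging scaled within each plate; lower means fewer cells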
HSV replic up primary fold = recorded beside HSV replic up, whose call it bears; fold increase; compound at 10 µM; measured here: primary screen fold increase 10 uM; tested in PC3 cells;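 GFP signal in the first replicate; 1 = infected wells without compound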
* hit, by the source's call; i = inactive; / = no result given.

SMILES	Insulin prom inh	Insulin prom inh cell count	PKD1 kinase inh	RGS16-Gao	GALR2 agonist	HSV replic up	HSV replic up primary fold
Cc1cc(Br)ccc1OCC(=O)NNC(=O)Cc1ccccc1	-42	113	3	107	-0.9	i	0.98
Cc1ccc2c(c1)-c1[nH]c(=S)ncc1CS2	-140	66	-2	100	/	i	0.96
COc1ccnc(N=CNOCc2cccc(C(F)(F)F)c2)c1C#N	/	/	-10	97	/	i	0.79
C/C(=N\Nc1nccnc1Cl)c1c(F)c(F)c(F)c(F)c1F	/	/	8	110	-0.7	i	0.85
Cc1ccc(C2CC(c3ccc(Cl)cc3)=NNC2=O)cc1 (centres undefined)	/	/	0	106	-3.0	i	0.95
Cc1ccccc1C(=O)Oc1cccc(Nc2ncnc3ccccc23)c1	20	116	16	/	-1.1	i	0.72
Cc1ccc(SCc2[nH]nc3c2C2(C(=O)N(C)c4ccccc42)C(C#N)=C(N)O3)cc1 (centres undefined)	/	/	-3	105	0.1	i	0.65
COCCNC(=O)C(c1cccs1)N(Cc1cccs1)C(=O)Cn1nnc2ccccc21 (centres undefined)	-100	116	-2	99	-0.6	i	0.89
COC(=O)c1ccc(/C=N/OCC(=O)NC2CCCCCCC2)cc1	-61	90	1	100	-3.6	i	0.93
CN(C)C(=O)c1ccc(NC(=O)c2cncc(Br)c2)cc1	/	/	-2	101	-2.5	i	0.86
Oc1c(CN2CCN(c3ccc(F)cc3)CC2)cc(Cl)c2cccnc12	0	74	-1	97	-2.1	i	0.74
COc1cccc(NC(=O)COC(=O)CCOc2ccccc2OC)c1	-5	87	1	101	/	i	1
CC(NC(=O)C1CCC(CNc2c(N3CCCCC3)c(=O)c2=O)CC1)c1ccccc1 (centres undefined)	/	/	/	99	/	i	0.97
Cc1cc(NC(=O)c2c(F)cccc2F)n(-c2nc3ccccc3[nH]2)n1	-9	86	4	103	0.6	i	0.76
CCc1ccc(NC(=O)Cc2ccc(OC)cc2)cc1	3	77	-5	48	-0.8	i	0.95
O=C(CSCc1c(Cl)cccc1Cl)NN=C1CCCC1	/	/	-4	102	/	i	0.93
COc1ccc(OCCSc2nc(C)nc3ccccc23)cc1	-70	102	3	108	/	i	0.99
N#CCSc1nc2ccc(N3CCCCC3)cc2c(=O)n1Cc1ccccc1	-55	144	2	87	-1.0	i	0.61
COc1ccc(-n2ncc3c(NCc4ccco4)ncnc32)cc1	/	/	4	100	-0.2	i	0.79
COc1cccc(/C=N/NC(=O)CNC(=O)COc2ccccc2)c1O	/	/	/	92	/	i	1
O=C(N/N=C/c1cccc(O)c1)c1ccc(COc2ccccc2Br)cc1	3	88	-14	105	-0.7	i	0.74
CCCCOC(=O)Cn1c(=N)n(CCN(CC)CC)c2ccccc21	-3	108	-8	/	-1.4	i	0.95
Cc1ccc(S(=O)(=O)N2CCCC2C(=O)NCCc2nc3ccccc3[nH]2)cc1 (centres undefined)	-111	122	1	/	0.3	i	0.87
O=C(c1ccc(S(=O)(=O)N2CCOCC2)cc1)N1CCN(S(=O)(=O)c2ccc(Cl)s2)CC1	/	/	/	105	/	i	0.96
Cc1ccc2oc(-c3cccc(NC(=S)NC(=O)c4cccs4)c3)nc2c1	/	/	2	36	0.5	i	0.99
COc1ccccc1CNC(=O)COC(=O)Cc1ccc(Cl)cc1	/	/	2	101	-1.0	i	1
O=C(Nc1cccc(C(F)(F)F)c1)c1cccnc1N1CCN(CCO)CC1	-300	124	-2	100	-2.4	i	0.85
Cc1ccccc1Oc1nc(-c2ccccn2)nc2ccccc12	/	/	/	98	/	i	0.8
Cc1cc(NC(=O)c2noc3c2CCCCC3)no1	/	/	-6	100	-3.8	i	0.96
COc1ccc(CCNC(=O)C2CC(c3cc(C(F)(F)F)cc(C(F)(F)F)c3)=NO2)cc1 (centres undefined)	/	/	/	101	/	i	1
CCOC(=O)C(NS(=O)(=O)c1ccc(Br)cc1)C(C)C (centres undefined)	/	/	-10	96	-0.8	i	0.94
O=C(CCc1nnc(COc2ccccc2)o1)NCc1ccc(Cl)s1	/	/	0	95	/	i	0.94
FC(F)(F)c1ccc(N2CCN(c3ncnc4c3nnn4Cc3ccccc3Cl)CC2)cc1	31	94	-3	64	-1.4	i	0.89
NC(=O)c1cccn1Cc1cccc(Cl)c1	42	65	1	100	-2.8	i	0.89
CCc1ccc(N(C(=O)c2ccoc2C)C(C(=O)NC2CCCC2)c2ccc(OC)cc2)cc1 (centres undefined)	-32	100	7	68	-2.4	i	0.98
CC(C)Cc1nnc(NC(=O)CCC(=O)N2CCN(S(=O)(=O)c3ccccc3)CC2)s1	3	126	-9	104	-0.5	i	1
O=C(Cc1cccs1)Nc1nc(-c2ccc(F)cc2F)cs1	33	112	-9	101	-2.4	i	0.92
COc1ccc(C2C(C(C)=O)=C(O)C(=O)N2CCCn2ccnc2)cc1 (centres undefined)	57	114	3	100	-1.0	i	1.1
COc1ccc(C2(CCN=Cc3ccc(N(C)C)cc3)CCOC(C)(C)C2)cc1 (centres undefined)	/	/	/	100	/	i	0.98
CC1CCCC(NC(=O)COC(=O)Cc2cn3ccsc3n2)C1C (centres undefined)	-6	114	-11	-64*	-2.7	i	1
O=C(c1nn(Cc2ccccc2)c(=O)c2ccccc12)N1CCN(c2ccccn2)CC1	/	/	-18	95	-0.4	i	0.77
COc1ccc(S(=O)(=O)NCC2CCCN(Cc3cccnc3)C2)cc1 (centres undefined)	/	/	1	106	/	i	0.92
CCOC(=O)c1c(NC(=O)CN(CC)CC)sc2c1CCN(C(=O)OCC)C2	/	/	-2	104	0.1	i	0.86
COc1c(C)cc(C(=O)C2CCCN(C(=O)c3cccc(F)c3)C2)cc1C (centres undefined)	/	/	4	102	/	i	1.1
CCc1ccc(NCc2nc3ccccc3c(=O)[nH]2)cc1	-25	86	6	98	-0.2	i	0.81

By substructure, those above with two or more sulfur atoms (6)
SMILES	Insulin prom inh	Insulin prom inh cell count	PKD1 kinase inh	RGS16-Gao	GALR2 agonist	HSV replic up	HSV replic up primary fold
Cc1ccc2c(c1)-c1[nH]c(=S)ncc1CS2	-140	66	-2	100	/	i	0.96
COCCNC(=O)C(c1cccs1)N(Cc1cccs1)C(=O)Cn1nnc2ccccc21 (centres undefined)	-100	116	-2	99	-0.6	i	0.89
O=C(c1ccc(S(=O)(=O)N2CCOCC2)cc1)N1CCN(S(=O)(=O)c2ccc(Cl)s2)CC1	/	/	/	105	/	i	0.96
Cc1ccc2oc(-c3cccc(NC(=S)NC(=O)c4cccs4)c3)nc2c1	/	/	2	36	0.5	i	0.99
CC(C)Cc1nnc(NC(=O)CCC(=O)N2CCN(S(=O)(=O)c3ccccc3)CC2)s1	3	126	-9	104	-0.5	i	1
O=C(Cc1cccs1)Nc1nc(-c2ccc(F)cc2F)cs1	33	112	-9	101	-2.4	i	0.92

(continued)
SMILES	Insulin prom inh	Insulin prom inh cell count	PKD1 kinase inh	RGS16-Gao	GALR2 agonist	HSV replic up	HSV replic up primary fold
N#Cc1nc(-c2ccccc2F)oc1NCc1ccccc1	/	/	-4	61	-2.5	i	0.74
N#C/C(=N/O)c1nc(-c2ccc(F)cc2)cs1	-67	116	-7	95	-2.8	i	1
COC(=O)c1cccc(N(C(=O)c2cnccn2)C(C(=O)NC2CCCCC2)c2cn(C)nc2C)c1 (centres undefined)	62	48	10	106	-3.0	i	0.9
CCc1nnc(NC(=O)CCC(=O)N2CCN(Cc3ccc(Cl)cc3)CC2)s1	-18	94	-2	109	-1.2	i	0.92
O=[N+]([O-])c1cccc(-n2nnnc2CNCc2ccccc2)c1	/	/	/	128	/	i	0.92
Cc1cccc(N/N=C(\C=N\N)C(=O)c2ccc(Br)cc2)c1	/	/	3	97	/	i	0.86
O=C(CN1C(=O)C2C3c4ccccc4C(c4ccccc43)C2C1=O)N1CCOCC1 (centres undefined)	/	/	-15	102	-1.3	i	1.2
Cc1ccccc1N=CC=C1OC(C)(C)C(C)(C)O1	37	55	-2	97	-1.3	i	0.95
CCOC(=O)N1CCN(C(=O)CCc2nc3sc4c(c3c(=O)[nH]2)CCCC4)CC1	/	/	/	102	/	i	1.1
CC(=O)Nc1nc2ccc(C(=O)NC3CCCCC3)cc2s1	0	178	-2	109	-1.4	i	0.94
CN(Cc1cn(C)c2ccccc12)C(=S)Nc1cc(F)cc(F)c1	8	110	-10	64	-1.7	i	0.98
COc1ccccc1NC(=S)N1CCNC(=O)C1CC(=O)Nc1cccc(C)c1 (centres undefined)	/	/	/	102	/	i	1
Cc1ccc(-c2cc(-c3ccccc3)nc(Cl)n2)cc1	/	/	-5	103	-1.5	i	0.97
Cc1cc(C)cc(OC2CCCCC2NS(=O)(=O)c2ccccc2)c1 (centres undefined)	-9	131	-6	105	1.1	i	0.9
O=C(c1cccc(F)c1)N1CCN(S(=O)(=O)c2ccc(C(F)(F)F)cc2)CC1	/	/	2	101	-0.6	i	1.2
COCCn1nnnc1C(c1cc2cc(OC)c(OC)cc2[nH]c1=O)N1CCN(c2ccc(O)cc2)CC1 (centres undefined)	11	94	2	95	/	i	1
O=C(c1ccc(Cn2cc(Cl)c([N+](=O)[O-])n2)cc1)N1CCN(Cc2ccccc2)CC1	/	/	/	99	/	i	1.1
O=C1NC(=S)SC1=C1CCCC1	-46	105	-3	110	0.3	i	0.9
COc1ccc(C2Nc3ccccc3C(=O)N2Cc2ccccc2)cc1COc1ccccn1 (centres undefined)	-43	40	-3	103	-2.8	i	0.95
COc1ccc(Cl)cc1-c1nc(-c2ccncc2)no1	81*	70*	-6	109	-1.0	i	0.93
Cc1nc2nc(C)c(CCC(=O)NCCC3=CCCCC3)c(C)n2n1	/	/	4	83	-0.8	i	1.2
Cc1cc(=O)n(-c2ccc(O)cc2)[nH]1	/	/	4	88	-1.6	i	0.97
COc1cccc(NC(=O)c2nn(C34CC5CC(CC(C5)C3)C4)cc2[N+](=O)[O-])c1	-13	85	14	236	-0.3	i	0.96
CCOC(=O)N1CCC(N2Cc3cccc(C(=O)NCc4ccccc4OC)c3C2=O)CC1	/	/	4	179	0.3	i	1
O=C(NNC(=O)c1ccccc1O)c1ccc(Cl)cc1	46	138	-12	48	-0.7	i	0.92
CC(=O)Nc1nc(C)c(C(C)(C)C)s1	/	/	/	93	/	i	0.96
COC(=O)c1ccc(NC(=O)COc2ccc(S(=O)(=O)N3CCCCC3)cc2)cc1	27	36	-10	94	-1.6	i	0.86
CSCCCNC(=S)Nc1ccc(N2CCOCC2)cc1	-12	127	2	99	/	i	0.96
CCCOc1ccc(N2C(=O)CC(N(CCc3ccc(OC)cc3)C(=O)c3cccc(F)c3)C2=O)cc1 (centres undefined)	27	116	3	103	-1.7	i	0.84
CCn1c(Cc2ccccc2)nnc1SCC(=O)Nc1ccc(N2CCOCC2)c(Cl)c1	-377	93	1	105	-2.2	i	1
O=C(Nc1cccc(C(F)(F)F)c1)c1cnc2n(c1=O)CCS2	/	/	8	101	-3.0	i	0.92
O=C(O)COc1ccccc1/C=N/NC(=O)CSc1nc2ccccc2c(=O)n1-c1ccc(Cl)cc1	/	/	/	100	/	i	1
COc1ccccc1N(Cc1ccccc1)S(=O)(=O)c1cccc(C(=O)O)c1	-8	147	16	103	-0.1	i	0.99
COc1ccc(NC(=S)NCc2cccnc2)cc1OC	/	/	4	102	/	i	0.86
CC(C)(CCl)C(=O)Nc1ccc(Sc2ccc(F)cc2)cc1	-38	70	-11	98	-0.6	i	0.78
Cc1[nH]n2c(=O)cc(Cc3ccccc3)nc2c1C#N	41	115	-8	100	-1.7	i	1.1
COc1cccc(CN=CC2=C(O)CC(C)(C)CC2=O)c1OC	9	155	-3	103	-0.5	i	0.59
CSc1nc2sc3c(c2c(=O)n1CC(C)C)CC(C)(C)OC3	/	/	/	96	/	i	0.96
CC(C)OC(=O)CSc1nnc2n1C(C)(C)Cc1ccccc1-2	-18	109	1	96	-0.9	i	1.2
O=C(Nc1nccs1)c1ccc(Cl)c(S(=O)(=O)N2CCOCC2)c1	/	/	-6	97	-2.7	i	0.96
O=C(NCCCN1CCOCC1)c1sc2ccccc2c1Cl	/	/	-2	100	/	i	0.9
CC1(C)Cc2c(sc3nc(-c4cc5ccccc5o4)n(N)c(=O)c23)CO1	-52	24	-3	102	-0.3	i	0.95
